# Screening results: PubChem, several laboratories
# Calb FLC = C. albicans growth modulation with fluconazole. C. albicans CaCi-2 (fluconazole-resistant clinical isolate) + fluconazole, Alamar Blue growth, 48 h. growth inhibition, % (test concentration not listed). 0.57% of 300,000 active. AID 1979;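 active = most replicates above 75%; inconclusive = exactly half above 75%; inactive = most below 75%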;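 note: all wells also contain fluconazole at 8 µg/ml as a sub-toxic cotreatment; 0% = median of DMSO wells and 100% = median of geldanamycin control wells; wells of about 8 µL received 7.5 nL stock; the first replicate is given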
# RanGTP-Impb inh = disruptors of Ran-importin-beta complex formation – biochemical, FRET, CFP-Ran, YFP-importin-beta, homogeneous, primary screen | cell-free CFP-Ran/YFP-importin-beta FRET ratio | inhibition, % (no concentration beside the values) | 1.1% of 300,000 active;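 active = most replicates above 15%; inconclusive = exactly half above 15%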;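 note: 0% = DMSO wells and 100% = Ran loaded with GDP instead of GTP; wells of about 40 µL received 100 nL stock; the first replicate is given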
# Beta cell apopt = blocks beta cell apoptosis | INS-1E cytokine-induced death, ATP luminescence, 48 h; percent of positive-control rescue, neutral wells zero | protection from apoptosis, % (concentration not given with the values) | 0.8% of 300,000 active | AID 435005;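 active = all replicates at 75% or more, or half of them and the mean; inconclusive = half reach 75% but not the mean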;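 note: 0% = cytokine-treated negative control wells and 100% = positive control rescue; higher means more ATP so stronger rescue from cytokine killing; wells of about 40 µL received 100 nL stock; the first replicate is given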
# A1 inh = inhibitors of the anti-apoptotic protein A1, read as caspase activation. caspase activation, % (concentration not given with the values). 0.066% of 330,000 active. MEF A1-2A-BIM cells, Caspase-Glo 3/7 luminescence, 3 h; percent of clofoctol response, vehicle zero;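 active = over half of replicate activation scores above 10%, or exactly half above 10 with the replicate mean above 10; inconclusive = replicate mean below 10 yet half the replicates above 10; inactive = over half of replicates below 10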;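 note: wells of about 30 µL received 50 nL stock; many hits fall short of the cut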
# T cruzi inh = blocks replication of Trypanosoma cruzi; inhibition, % (test concentration not listed); 1.4% of 300,000 active; T. cruzi beta-gal in NIH3T3, luminescence, 90 h;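 active = mean inhibition across valid replicates above about 55%, limit read from the data; inconclusive = mean below that limit but half or more replicates reach it; inactive = mean below it, under half of replicates reach it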;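 note: signal also drops with host cell toxicity which is not excluded here; 0% = plate median of DMSO wells and 100% = zero luminescence signal; higher percent means less beta-gal luminescence so fewer parasites; stock transfer was 50 nL into about 50 µL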
# rRNA inh HTS = inhibitors of bacterial rRNA selective over humanized ribosomes. E. coli WT GFP vs humanized-ribosome RFP mutants, fluorescence, 24 h; hits give low values; DMSO median 0, no signal -100. GFP signal change (wild-type ribosome), % (no concentration beside the values). 1.6% of 350,000 active;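 active = significant combined selectivity score with lowered wild-type GFP, culture density cut under 30%, mutant RFP and density less affected; inactive = any of these conditions unmet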; note: one replicate is shown; some compounds called inactive have numbers as strong as hits
# Vif TR-FRET = HIV-1 Vif–A3G interaction blockers – biochemical, TR-FRET, GST-Vif 1-94, biotin-A3G peptide, dose response retest, primary screen (AID 1117319). TR-FRET GST-Vif / biotin-A3G peptide binding; higher % means a stronger effect; test concentration not given here; strong numbers were not always called active. one-dose inhibition, %; IC50 in µM for titrated hits. 0.57% of 260,000 active;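 active = above the screen mean plus three standard deviations and confirmed in dose response; inconclusive = results disagree or hit not tested in dose response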;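 note: Vif residues 1-94 fused to GST binding biotinylated APOBEC3G peptide 110-148; 0% = full assay without inhibitor and 100% = GST in place of GST-Vif; retest series ran down from 100 µM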
# AF4-AF9 inh = MLL-AF4/AF9 protein interaction inhibition. P42568. AlphaScreen, biotin-AF4 peptide binding to FLAG-AF9. inhibition, % at 10 µM. 0.47% of 350,000 active. AID 651704;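 active = every replicate reaching a set inhibition limit, whatever the replicate mean, cut at about 25% in these data; inconclusive = mean inhibition reaches that limit but some replicates miss it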;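 note: 0% = plate neutral control median and 100% = total signal loss; the record names both 10 and 1 µM as test concentration; the first replicate is given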
# Target sequence (P42568 whole entry, looked up): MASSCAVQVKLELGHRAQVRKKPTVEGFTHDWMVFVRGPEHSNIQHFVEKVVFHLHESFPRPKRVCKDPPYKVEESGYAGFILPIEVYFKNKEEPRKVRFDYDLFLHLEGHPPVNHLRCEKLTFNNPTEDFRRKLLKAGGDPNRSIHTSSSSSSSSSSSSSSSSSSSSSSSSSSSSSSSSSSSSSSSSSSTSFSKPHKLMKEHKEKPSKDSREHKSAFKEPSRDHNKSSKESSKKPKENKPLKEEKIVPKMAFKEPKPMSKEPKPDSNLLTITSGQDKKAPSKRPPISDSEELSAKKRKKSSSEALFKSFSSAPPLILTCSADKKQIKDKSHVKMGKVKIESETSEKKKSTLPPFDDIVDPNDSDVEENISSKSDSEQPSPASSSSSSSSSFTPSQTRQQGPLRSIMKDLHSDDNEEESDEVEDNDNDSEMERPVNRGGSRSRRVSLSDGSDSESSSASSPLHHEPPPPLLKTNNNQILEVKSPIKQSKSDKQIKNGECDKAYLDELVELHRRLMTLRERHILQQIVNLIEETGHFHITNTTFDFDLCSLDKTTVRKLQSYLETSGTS
# rRNA inh HTS OD600 = second read-out of rRNA inh HTS, no call of its own (marks repeat the call); OD600 change, %; measured here: OD600 growth;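 optical density of the mix in the first replicate; 0 = DMSO median and -100 = no signal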
# rRNA inh HTS RFP = also measured in rRNA inh HTS; calls as there; RFP signal change, %; measured here: RFP humanized mutant strains;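 first replicate; 0 = DMSO median and -100 = no signal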
# * hit, by the source's call; ? = inconclusive; . = no result given; & = joins results of further samples. A portion of the library (hit frequency here may not be typical).
SMILES,Calb FLC,RanGTP-Impb inh,Beta cell apopt,A1 inh,T cruzi inh,rRNA inh HTS,rRNA inh HTS OD600,rRNA inh HTS RFP,Vif TR-FRET,AF4-AF9 inh
COC(=O)C(C(=O)OC)c1ncccc1[N+](=O)[O-],0,1.8,1,0.3,-4,27,13,1.3,-1%,-3.2
O=C1CCCN1Cc1ccccc1,.,2.1,-4,-0.2,0,6,14,1.7,.,-1.9
CCO[C@@H]1OC(C(=O)NCc2nc3ccccc3[nH]2)=C[C@H](c2ccccc2)[C@H]1CCCO,10,3.7,2,0.8,2,-30,-42,-0.8,.,-3.2
O=C(Nc1cccc(/C=C/c2ccccn2)c1)c1cc(Cl)ccn1,0,-4.1,-3,-1.0,1,-11,-17,3.3,.,-2.7
CCOC(=O)c1c(C)oc2c1c(C=NCCC(=O)O)c(O)c1ccccc12,76,-1.3,-7,-0.6,-7,6,6,-0.9,?,2.2
Cc1ccc(OCC(=O)NCCNC(=O)COc2ccc(C)cc2)cc1,-1,-0.7,5,-0.3,-11,3,9,5.0,.,-4.8
Cc1cc(C)nc(N/N=C/c2cn[nH]c2-c2ccc(F)cc2)n1,-3,0.7,-3,0.3,-6,0,0,11,-6%,-1.6
COCCCNC(=O)Cn1ncc2c(=O)oc3ccccc3c21,4,1.9,3,0.0,3,.,.,.,13%,.
O=C(NCc1ccc(F)cc1)C(=O)NCC1OCCN1S(=O)(=O)c1cccs1 (stereo unspecified),-1,0.2,4,?,-7,3,12,-2.7,20%,-9.1
CC(=O)c1sc(NC(=O)CSCc2c(C)noc2C)nc1-c1ccccc1,.,.,-1,0.2,.,.,.,.,-5%,-5.9
O=C(Cn1ccc(NC(=O)OCc2ccccc2)nc1=O)NCc1ccccn1,.,.,-7,0.1,.,5,-5,-1.9,.,1.0
CC(C)(C)NC(=O)C1N(c2cccnc2)C(=O)C2C(C(=O)Nc3ccccc3)C3(C)C=CC21O3 (stereo unspecified),-2,-0.5,-3,0.0,-16,.,.,.,-9%,.
O=C(Sc1ccc(Cl)cc1)c1cccc(Cn2cc(C(F)(F)F)ccc2=O)c1,-15,-0.4,-18,0.6,33,18,18,0.9,-3%,-3.5
O=C(Nc1ccc(F)cc1)Nc1csc2ccccc12,8,4.0,23,2.8,32,-41,-66,-5.0,-7%,0.2
COc1cc(CN2CCN(C(=O)CC(C)C)CC2)cc(OC)c1O,14,3.1,-9,-0.4,-28,.,.,.,12%,.
Cc1ccc(C(=O)COC(=O)C2C3C=CC(C3)C2C(=O)OCC(=O)c2ccc(C)c(C)c2)cc1C (stereo unspecified),2,0.6,1,0.3,42,.,.,.,-4%,.
Cc1cc(NS(=O)(=O)c2ccc(NC(=O)c3cc4c(=O)n5ccccc5nc4s3)cc2)nc(C)n1,2,7.5,.,.,5,-2,1,3.1,18%,-2.5
O=C(CN1CCS(=O)(=O)CC1)NNC(=O)C1CCCCC1,4,-0.6,1,0.5,-9,16,16,4.2,1%,0.2
O=c1[nH]c2ccccc2cc1CN(CC1CCCO1)S(=O)(=O)c1ccccc1 (stereo unspecified),-2,3.2,5,0.2,20,-7,-5,0.8,.,0.1
O=S(=O)(c1ccc(OCC(O)CN2CCN(c3ccccc3Cl)CC2)cc1)N1CCOCC1 (stereo unspecified),23,2.3,5,-0.3,39,.,.,.,-2%&3%,.
Cc1ccc(NC(=O)CSc2nc3ccccc3c(=O)n2CCCN2CCCCC2)cc1Cl,-1,1.6,29,0.0,56*,-57,-79,-25,.,21
N#C/C(=C\c1cccc(O)c1)c1nc2ccccc2o1,-8,12,1,-2.4,-18,-18*,5.3*,0.6*,9%,2.8
CCC(=O)c1ccc(OCC(=O)OCC(=O)NC2CCCCCC2)cc1,-3,1.2,2,-0.1,-14,10,7,-2.4,-11%,-1.3
Cc1nc(C)n(C(C)CNC(=O)c2cccc(Br)c2)n1 (stereo unspecified),16,1.4,-6,1.0,-13,12,6,0.6,.,-1.3
CCc1ccc(CN(C)CC(=O)Nc2ccccc2[N+](=O)[O-])cc1,-4,4.5,-1,1.4,23,.,.,.,13%,.
SMILES,Calb FLC,RanGTP-Impb inh,Beta cell apopt,A1 inh,T cruzi inh,rRNA inh HTS,rRNA inh HTS OD600,rRNA inh HTS RFP,Vif TR-FRET,AF4-AF9 inh
CNC(=O)C1CC(=O)N(CCc2ccc(OC)cc2)C(=Nc2ccc(OC)cc2)S1 (stereo unspecified),-6,2.5,5,0.6,10,.,.,.,2%,.
O=C(Nc1ccc(NC(=O)c2ccco2)cc1)c1ccc2c(c1)OCO2,3,2.6,3,-0.5,-3,.,.,.,21%,.
O=C(COc1ccc2ccc(=O)oc2c1)NC1CCCCC1,.,.,2,-0.6,.,1,15,-1.5,.,0.3
CN(C)S(=O)(=O)c1cccc(C(=O)NCc2ccco2)c1,-5,-2.1,-7,0.5,-18,.,.,.,8%,.
Cc1cccc(COCCN2CCN(S(=O)(=O)c3ccccc3)CCC2=O)c1,7,-1.3,3,-0.2,-6,-6,2,-7.8,.,-1.9
S=C(Nc1ccc(Oc2ccccc2)cc1)NC1CCCC1,3,-1.5,.,-0.3,4,-20,-34,7.9,.,7.6
CC1CCCN(S(=O)(=O)c2ccc(S(=O)(=O)N3CCCN(Cc4ccccc4)C3)cc2)C1 (stereo unspecified),3,11,.,.,?,.,.,.,0%,.
CCN1CCN(C2CC(=O)NC2=O)CC1 (stereo unspecified),-13,12,-1,1.0,-4,.,.,.,16%,.
COc1cc(OC)c(C(=O)OCN2C(=O)c3ccccc3C2=O)cc1OC,7,2.8,-2,1.8,-4,2,13,0.0,.,-1.6
COCCCNS(=O)(=O)c1ccc(Cl)c(C(F)(F)F)c1,40,0.0,-2,1.6,-1,-1,-5,1.3,9%,-1.1
Cc1ccc(S(=O)(=O)NNC(=O)Nc2ccc([N+](=O)[O-])cc2)c(C)c1,-7,0.0,-10,0.2,16,-23*,-5.0*,0.9*,.,-1.5
COc1ccc(CCNC(=O)COc2ccc(N(C)S(=O)(=O)c3ccc(C)cc3)cc2)cc1OC,-2,0.4,9,-0.4,6,-40,-45,-7.2,.,-9.9
Cc1ccc(C)c(S(=O)(=O)NCC(=O)Nc2sc3c(c2C(N)=O)CCC(C)C3)c1 (stereo unspecified),-8,3.4,30,?,.,.,.,.,-4%,.
COCCn1nnnc1C(C(C)C)N(Cc1cccnc1)Cc1cc2cc(OC)ccc2[nH]c1=O (stereo unspecified),6,3.3,-6,1.0,17,.,.,.,24%&1%,.
CC(C)(C)n1nc(Cc2cccc3ccccc23)c(C#N)c1N,11,-1.0,-5,-0.2,12,-6,6,-11,.,-5.3
N#C/C(=C(/O)c1ccc([N+](=O)[O-])cc1)c1nc2ccccc2[nH]1,1,-14,7,-2.2,-11,17,11,3.1,7%,-2.4
Cc1ccc(-n2nc3c(=O)n(CC(=O)NC4CCCCC4)nc(C)c3c2C)cc1,2,-0.8,-6,-1.1,8,-4,0,-5.2,.,-3.9
COC(=O)[C@@H]1C[C@@]2(O)[C@H](O)[C@H](O)[C@H](O)C[C@H]2N1Cc1cccc2ccccc12,-20,-1.7,2,-0.5,-14,7,8,2.8,.,-3.8
Nc1nc(-c2ccco2)nn1C(=O)c1ccc(F)cc1,-1,-1.4,.,.,-12,6,-2,2.3,.,-6.5
Cc1nnc(SCC(=O)NC(C)(C)C)n1C1CCCCC1,-3,-3.6,3,0.0,-18,9,0,2.6,-5%,-3.6
O=C(Nc1nc(-c2ccco2)c(-c2ccco2)s1)c1c(F)cccc1Cl,.,.,0,?,.,-9,13,53,?,2.9
COc1cccc(-n2c(Cc3cc(=O)[nH]c(=O)[nH]3)nnc2SCc2cccnc2)c1,-2,0.3,.,1.6,-1,8,6,4.0,-1%,-9.3
CCC(C)(C)NC(=O)COc1ccc(C(=O)c2ccccc2)cc1,-15,-2.3,5,1.1,7,7,6,2.7,-8%,-0.4
CNS(=O)(=O)c1ccc(N2CCCC2)c([N+](=O)[O-])c1,0,0.1,-9,0.2,-4,-4,-4,-1.7,21%,0.5
COc1ccc(NC(=O)Cn2nc(C(F)(F)F)c3c2CCCC3)c(OC)c1,5,-0.2,-4,0.9,11,.,.,.,18%,.

# Fetched by compound from above, four records:
SMILES,Calb FLC,RanGTP-Impb inh,Beta cell apopt,A1 inh,T cruzi inh,rRNA inh HTS,rRNA inh HTS OD600,rRNA inh HTS RFP,Vif TR-FRET,AF4-AF9 inh
Cc1cccc(COCCN2CCN(S(=O)(=O)c3ccccc3)CCC2=O)c1,7,-1.3,3,-0.2,-6,-6,2,-7.8,.,-1.9
Cc1ccc(C)c(S(=O)(=O)NCC(=O)Nc2sc3c(c2C(N)=O)CCC(C)C3)c1 (stereo unspecified),-8,3.4,30,?,.,.,.,.,-4%,.
Cc1ccc(C(=O)COC(=O)C2C3C=CC(C3)C2C(=O)OCC(=O)c2ccc(C)c(C)c2)cc1C (stereo unspecified),2,0.6,1,0.3,42,.,.,.,-4%,.
Cc1ccc(OCC(=O)NCCNC(=O)COc2ccc(C)cc2)cc1,-1,-0.7,5,-0.3,-11,3,9,5.0,.,-4.8

# Further records.
SMILES,Calb FLC,RanGTP-Impb inh,Beta cell apopt,A1 inh,T cruzi inh,rRNA inh HTS,rRNA inh HTS OD600,rRNA inh HTS RFP,Vif TR-FRET,AF4-AF9 inh
COC(=O)c1cc(CNC(=O)c2sccc2-c2ccccc2)ccc1OC,4,4.3,-6,-0.1,-13,-13,-14,3.1,.,0.2
NCCCCCc1nnc(SCC(=O)Nc2cccc(Cl)c2)o1,15,-1.9,-9,-0.6,-18,.,.,.,20%,.
CCCSC1=N/C(=C\C=C\c2ccco2)C(=O)S1,-12,-6.6,0,0.3,-12,.,.,.,3.8µM*,.
COc1ccc(CC(=O)N(Cc2ccccc2)c2ccccc2)cc1S(=O)(=O)N1CCOCC1,7,0.0,-1,0.2,9,-7,-24,-0.2,.,-0.1
O=C(CNC(=O)c1ccc([N+](=O)[O-])cc1)N/N=C\c1ccc(OC(=O)c2ccccc2)cc1,-3,-3.2,3,-0.6,-12,.,.,.,0%,.
CN(C)c1ccc(/C=C(\NC(=O)c2ccccc2)C(=O)NCc2cccnc2)cc1,8,7.7,0,1.2,8,-4,-2,-3.5,.,-1.9
COc1ccc(CC(NC(C)=O)C(=O)NC2CCN(c3c(Cc4ccccc4)c(C)nc4ncnn34)CC2)cc1OC (stereo unspecified),15,1.2,5,-0.2,-7,5,14,4.7,15%,6.7
CCc1ccc(Oc2cc(C)nc(N)n2)cc1,-19,2.4,.,-1.5,-5,.,.,.,25%,.
Cc1ccc2[nH]c(=O)c(CC(=O)O)c(-c3ccccc3)c2c1,-4,-2.0,.,0.2,-11,10,7,3.8,-5%,-2.9
